Autofluor counter = flagged as autofluorescent in microsphere protease counterscreen; fluorescence intensity (test concentration not listed); actives 3.1% (n = 360,000); compound autofluorescence counterscreen, microsphere flow cytometry; active compounds read high; AID 624483;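 active = at least 3 SD above the mean of all compounds, about 16000 in these data; inconclusive = too few beads counted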;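 note: 100 nL of 1 mM stock went into each well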
BJeLR lethal = BJeLR cell viability loss | actives 0.17% (n = 300,000) | BJeLR (HRASV12) viability, CellTiter-Glo ATP luminescence, 48 h; reference of the scale not given here | AID 1554 | inhibition, % (concentration not given with the values);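 active = replicate mean above 50%; inconclusive = above 50% but judged a plate artefact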;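 note: 50 nL library stock added to about 25 µL; numbers are from one replicate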
Mtb hypoxia inh = inhibitors of hypoxia-regulated fluorescent reporter in Mycobacterium tuberculosis; M. tuberculosis hypoxia-regulated fluorescent reporter, fluorescence; fluorescence inhibition, % (concentration not given with the values); actives 0.1% (n = 300,000);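 active = 35 to 45% if threefold the growth effect, above 45% if 1.5-fold the growth effect; inactive = the rest, general growth blockers included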;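 note: wells of about 50 µL received 100 nL stock; 0% = vehicle wells and 100% = reference inhibitor wells; whole bacteria with a GFP reporter of the hypoxia response; strong numbers were not always called active; many hits fall short of the cut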
PrP UTR inh = suppresses PrP 5' UTR mRNA reporter expression; cell-based PrP 5' UTR mRNA reporter, plate reader; actives 0.35% (n = 340,000); inhibition, % (no concentration beside the values);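 active = every replicate at 50% or more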;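 note: 0 = median of the neutral control wells; tested in H4 reporter cells; numbers are from one replicate; inactives centre near -14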
Sa RN4220 lethal = kills Staphylococcus aureus RN4220 | S. aureus RN4220 growth, OD600, 16 h | inhibition, % (test concentration not listed) | actives 0.33% (n = 330,000) | AID 1259311;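 active = z-score of -3 or lower and OD600 up to 0.18 on both plates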;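 note: plate controls were untreated cells for no effect and reference antibiotic for full effect; stock transfer was 100 nL into about 80 µL; one replicate is shown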
ugtP null kill = compounds lethal to S. aureus RN4220 ugtP deletion mutant; OD600 growth, 16 h; some inactives read as strong as hits; growth inhibition, % (no concentration beside the values); actives 0.54% (n = 330,000);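 active = z-score under -3 and OD600 up to 0.15 on both plates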;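 note: plate controls were untreated wells for no effect and antibiotic for full effect; wells of about 80 µL received 100 nL stock; the first replicate is given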
Mtb hypoxia inh growth = recorded beside Mtb hypoxia inh, whose call it bears; growth inhibition, %; measured here: M. tuberculosis growth (absorbance);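 0% = vehicle and 100% = reference antibiotic; read after six days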
* marks the source's active call; other numbers are inactive results; ? = inconclusive; / = not tested or not shown.

SMILES | Autofluor counter | BJeLR lethal | Mtb hypoxia inh | Mtb hypoxia inh growth | PrP UTR inh | Sa RN4220 lethal | ugtP null kill
Cc1nnc(N2C(=O)C(O)=C(C(=O)c3ccco3)C2c2cccc([N+](=O)[O-])c2)s1 (stereo not given) | 5362 | 5 | 0 | 4 | -22 | -1.7 | 1
CCOc1cc(NC(=O)c2ccccn2)c(OCC)cc1NC(=O)CC(C)C | 4586 | 2 | / | / | -15 | 12 | 0
C[C@@H](NC(=O)c1nc[nH]c1C(=O)NCC(=O)OCc1ccccc1)c1ccccc1 | 4156 | 4 | / | / | -14 | / | /
CCOc1ccc(C(=O)/C=C/c2cn(CN3CCN(C)CC3)c3ccccc23)cc1 | 12343 | / | 10 | 6 | / | 5.5 | 57
Cc1ccc(S(=O)(=O)CC(=O)Nc2ccc(Cl)cn2)cc1 | 4128 | 0 | 8 | 3 | -13 | 9.3 | 4
O=C1CCC/C(=N/NC(=O)c2ccc(NS(=O)(=O)c3cccs3)cc2)C1 | 2677 | -6 | / | / | -4 | / | /
O=C(Nc1ccc(N2CCN(C(=O)c3cccs3)CC2)cc1)c1ccc(Br)o1 | 5348 | / | 2 | 7 | -17 | 7.3 | 3
CC(C)(C)NC(=O)NC(=O)CN1CCN(S(=O)(=O)c2ccccc2)CC1 | 16805* | 9 | 8 | 2 | -4 | 2.9 | 3
O=C(CCNC(=O)c1ccccc1)Nc1nc2ccccc2s1 | 3989 | / | -5 | 3 | -51 | -3.2 | -6
C[C@H]1O[C@@H](n2cc(F)c(=O)[nH]c2=O)[C@H](O)[C@@H]1O | 5306 | -6 | / | / | -9 | / | /
CCOC(=O)c1[nH]c(C(=O)O)c(OC(=O)CC)c1C | 3055 | 7 | -2 | 3 | -2 | 8.0 | 13
CCOC(=O)CSc1nc(N)cc(=O)[nH]1 | 2674 | -6 | / | / | -2 | -0.7 | -2
Cc1ccc(NC(=O)CN(C)C(=O)COC(=O)C2=COCCO2)cc1 | / | -10 | 1 | -3 | -10 | 2.3 | 1
COC(=O)c1ccc(NC(=O)CSC2=Nc3ccccc3C3CC=NN23)cc1 (stereo not given) | 9443 | -8 | -1 | -4 | -2 | 4.1 | -26
Cc1ccc(CCNc2ccccc2C)cn1 | 2532 | -7 | -6 | 9 | -2 | 11 | -5
O=C(COC(=O)CC1CCCC1)Nc1ccc(Cl)cn1 | 2906 | / | 8 | 0 | -4 | 6.8 | 7
O=C(O)CCC(=O)Nc1sc2c(c1C(=O)Nc1ccccc1)CCCCC2 | 2015 | -11 | 9 | 3 | -22 | 0.7 | 8
COC(CNC(=O)c1ccc2c(=O)n(Cc3ccc4c(c3)OCO4)c(=S)[nH]c2c1)OC | 4002 | 8 | -2 | -5 | -27 | -3.4 | 1
CC(NCc1ccncc1)C12CC3CC(CC(C3)C1)C2 (stereo not given) | 3149 | -6 | -1 | 20 | -9 | 3.9 | -1
O=S1(=O)CCO[C@H]2Cc3ccccc3[C@H]2N1Cc1ccc(Cl)cc1 | 3724 | 7 | / | / | -23 | / | /

3 structures out of the list, sorted by count of non-hydrogen atoms, ascending:
SMILES | Autofluor counter | BJeLR lethal | Mtb hypoxia inh | Mtb hypoxia inh growth | PrP UTR inh | Sa RN4220 lethal | ugtP null kill
O=C(CCNC(=O)c1ccccc1)Nc1nc2ccccc2s1 | 3989 | / | -5 | 3 | -51 | -3.2 | -6
Cc1ccc(NC(=O)CN(C)C(=O)COC(=O)C2=COCCO2)cc1 | / | -10 | 1 | -3 | -10 | 2.3 | 1
CCOc1ccc(C(=O)/C=C/c2cn(CN3CCN(C)CC3)c3ccccc23)cc1 | 12343 | / | 10 | 6 | / | 5.5 | 57

Two consecutive entries from above:
SMILES | Autofluor counter | BJeLR lethal | Mtb hypoxia inh | Mtb hypoxia inh growth | PrP UTR inh | Sa RN4220 lethal | ugtP null kill
Cc1nnc(N2C(=O)C(O)=C(C(=O)c3ccco3)C2c2cccc([N+](=O)[O-])c2)s1 (stereo not given) | 5362 | 5 | 0 | 4 | -22 | -1.7 | 1
CCOc1cc(NC(=O)c2ccccn2)c(OCC)cc1NC(=O)CC(C)C | 4586 | 2 | / | / | -15 | 12 | 0

(next part)
SMILES | Autofluor counter | BJeLR lethal | Mtb hypoxia inh | Mtb hypoxia inh growth | PrP UTR inh | Sa RN4220 lethal | ugtP null kill
CCCn1c(SCC(=O)NCc2ccco2)nnc1-c1ccncc1 | 4317 | -12 | 6 | 2 | -20 | 2.0 | 4
Cc1ccc(C(=O)NNc2cc(=O)n(C)c(=O)n2C)cc1C | 2498 | -4 | 0 | 10 | -17 | 0.4 | 2
COc1ccc(CCNC(=O)CSc2nnnn2Cc2ccc3c(c2)OCO3)cc1OC | 2408 | -1 | 10 | 1 | 30 | 6.3 | 7
O=C(COC(=O)c1cccnc1Cl)c1ccc(F)cc1 | 4669 | 1 | 13 | 7 | -7 | 1.2 | 1
CSc1ccccc1OCc1cc(C(=O)NCc2csc(C(C)C)n2)no1 | 6248 | -3 | 1 | 4 | -1 | 5.0 | -5
Cc1ccccc1C(O)c1ccccn1 (stereo not given) | 24308* | -13 | 3 | 3 | -33 | 3.7 | 8
CC1(C)CC2CC(C)(CN2c2ncnc3ccc(Br)cc23)C1 (stereo not given) | 2598 | -9 | 9 | 12 | -17 | 1.4 | 17
Cc1onc(-c2ccccc2)c1C(=O)Nc1cccc(S(=O)(=O)NC2=NCCC2)c1 | 2844 | / | 1 | -2 | -2 | 0.5 | 3
O=C(c1cccc(S(=O)(=O)Nc2ccc(Br)cc2)c1)N1CCCC1 | 5718 | 10 | 6 | 4 | -6 | 3.9 | -4
O=C(OCc1ccc(Cl)c(Cl)c1)c1cccnc1Cl | 5233 | -2 | 10 | -5 | -19 | 4.7 | -13
CC1(c2ccc([N+](=O)[O-])cc2)Nc2ccccc2S1 (stereo not given) | 3935 | 9 | 2 | 6 | -35 | 12 | 11
COC(=O)C1=NNC2(c3ccc(Cl)cc3)C(=O)N(c3ccc(Cl)cc3)C(=O)C12 (stereo not given) | 1994 | 8 | 8 | 8 | -12 | 1.9 | 8
CC(C)NC(C(=O)Nc1cc(Cl)cc(Cl)c1)c1ccccc1 (stereo not given) | 3208 | 4 | 8 | 9 | -29 | -15 | -18
COc1ccccc1C(=O)Nc1nnc(CCc2ccccc2)s1 | 3200 | 13 | 3 | 2 | -13 | 9.0 | -12
Cc1nc2cc(NC(=O)N3CCCC3)ccc2n1C | 4329 | -1 | -1 | 12 | -20 | -1.6 | 0
O=C(CSc1nnc(-c2ccccc2F)o1)NC1CC1 | 3659 | / | 14 | 9 | -18 | 3.0 | 2
COc1ccc(C(=O)CN2C(=O)NC3(CCCc4ccccc43)C2=O)cc1 (stereo not given) | ? | 2 | 1 | 12 | -19 | 0.9 | -6
N#Cc1nc(Cc2ccccc2)oc1N1CCN(c2ccccc2)CC1 | 10460 | 2 | 11 | 4 | -4 | 1.4 | -1
CCOC(=O)c1ccc(COC(=O)c2nonc2N)cc1 | 3015 | 16 | / | / | -26 | 5.5 | 2
Cc1occc1-c1nc(-c2ccccn2)no1 | 3815 | 13 | / | / | -43 | 1.9 | -1
C=CCNC(=S)N1CCC(C(=O)c2ccc3c(c2)OCCO3)CC1 | 5234 | 6 | 7 | 10 | -10 | -0.6 | 10
O=C(N/N=C/c1ccc(Cl)cc1Cl)c1cccc(N2CCCC2=O)c1 | 4418 | -4 | / | / | -26 | / | /
COc1ccc([N+](=O)[O-])cc1N(CC(=O)NCc1ccco1)S(C)(=O)=O | 4362 | 4 | 2 | 2 | -27 | 5.5 | 9
CCOc1ccc(-c2nc(C)c(C(C)=O)n2O)cc1 | 11418 | 2 | 15 | 3 | -30 | 4.4 | 0
O=C(Nc1ccc(Cl)cc1)N1CCN(C(=O)C2CCCO2)CC1 (stereo not given) | 5988 | 5 | -1 | 4 | -15 | -3.6 | 1
O=C(CCC(=O)NNc1nc2ccccc2c2nc(-c3ccccc3)nn12)NCCCN1CCOCC1 | 2658 | 0 | 4 | -1 | -21 | -2.3 | 7
CNCCCC1Sc2ccccc2Oc2ccccc21 (stereo not given) | 4550 | 12 | / | / | -5 | -5.7 | 4
O=C(CN1CCN(S(=O)(=O)c2ccccc2F)CC1)Nc1ccnn1C1CCCC1 | 6013 | / | -3 | -1 | -9 | 3.1 | 2
CCCCCCN=CC1=C(O)CC(C)(C)CC1=O | 3660 | 1 | / | / | 6 | 2.9 | 4
CCc1nnc(NC(=O)CSc2nnc(-c3ccccc3NC(=O)c3ccccc3)o2)s1 | 7226 | 8 | 5 | -7 | -13 | 9.6 | -3
O=C(CCc1ccccc1)OCCN1CCOCC1 | 2761 | -4 | / | / | -4 | 0.5 | 0
C[C@H]1CCC[C@@]2(O[C@@H](CCO)C[C@H](O)[C@H]2O)O1 | 3938 | -3 | / | / | -7 | / | /
Cc1occc1C(=O)NN=Cc1cccc2ccccc12 | / | / | -8 | 3 | / | -2.1 | -15
O=C(CNC(=O)c1ccccc1)OCc1cccc([N+](=O)[O-])c1 | 2741 | -2 | 5 | 11 | -5 | 5.6 | 0
COc1ccc(CN(C)Cc2c(O)ccc3ccccc23)cc1 | 3479 | 3 | / | / | 2 | / | /
COc1ccc(C2=NN(CN3C(=O)C(=O)c4ccccc43)C(c3ccc(C)cc3)C2)cc1 (stereo not given) | 6172 | -9 | 5 | 5 | -10 | -0.7 | -4
Cc1cccc(C)c1NC(=O)CNC(=O)c1ccc2c(c1)OCCO2 | 6236 | / | 8 | -10 | 9 | 3.8 | 7
CC(C)(C)c1ccc(C(=O)OCC(=O)NCc2ccco2)cc1 | / | / | 8 | 10 | -20 | 3.7 | 10
Nc1nc(Nc2ccccc2)nc(C(F)(F)F)n1 | 4011 | 7 | 0 | 0 | -32 | 1.5 | -2
CCc1ccc(-c2nn(Cc3ccccc3)cc2/C=C/C(=O)O)cc1 | 2392 | 8 | / | / | -8 | 13 | -5
COc1ccc(CNC(=O)[C@H](C)NC(=O)C2CC(=O)N(c3ccc(OC)cc3)C2)cc1 (stereo not given in full) | 5780 | 12 | 9 | 2 | -13 | 0.0 | 4
O=C1CC(c2ccccc2F)C2=C(COC2=O)N1 (stereo not given) | 3342 | -8 | 14 | 1 | -21 | 5.3 | 4
CCCOc1ccc(-c2cnc(SCC(N)=O)nc2N)cc1 | 3778 | -5 | / | / | 16 | 8.0 | 3
Clc1ccc2c(NCc3cccs3)ncnc2c1 | 4058 | -4 | -7 | 4 | -20 | -0.4 | -1
CS(=O)(=O)Nc1ccc(C(=O)NC2CCCC2)cc1 | 20262* | 2 | 6 | 7 | -11 | 2.2 | 4
C=CCN=C1CCCc2c1[nH]c1ccc(C)cc21 | 4319 | -2 | 1 | 3 | -12 | -3.3 | -9
Cc1onc(-c2c(F)cccc2Cl)c1C(=O)OCC(=O)NC1CC1 | 4252 | 0 | 13 | 1 | -36 | 4.3 | 6
Cc1cccc(NC(=O)c2cnn3ccccc23)c1C | 4567 | 1 | 7 | 11 | / | 2.4 | 7
Cc1ccc(-c2cc(-c3ccccc3O)nc(N/N=C/c3cccnc3)n2)cc1 | 8396 | -5 | / | / | -52 | / | /
COc1ccccc1/C=C1\SC(=S)N(N2C(=O)CCCC2=O)C1=O | 3529 | 10 | 11 | -1 | -5 | 10 | 4
Cc1c(C(=O)N2CCC2)oc2c(F)cccc12 | 3054 | / | 12 | 4 | -20 | 4.2 | 9
Cc1cccc(C(=O)NC2CCN(C(=O)Nc3ccc(F)cc3)CC2)c1 | 3468 | -6 | -4 | -1 | -21 | 3.0 | 3
CCC(=O)Nc1nc(CC(=O)Nc2ccccc2)cs1 | 9374 | -1 | 6 | 5 | -34 | 2.6 | 1
Cc1cc(C)cc(C(=O)NCC(=O)N2CCN(C(c3ccccc3)c3ccccc3)CC2)c1 | 5253 | -5 | 10 | 9 | -20 | -6.3 | 30
Cc1nn(C(=O)CNC(=O)c2ccccc2)c(C)c1C | 5663 | 2 | 6 | -2 | -28 | -1.9 | -1
CCNS(=O)(=O)c1cc(S(C)(=O)=O)ccc1Cl | 9386 | 5 | -4 | 3 | -12 | -2.3 | -4
COc1cccc(NC(=O)CSc2nnc(-c3cc(-c4ccccn4)nc4ccccc34)o2)c1 | 4268 | -6 | / | / | -22 | -3.8 | -2
CCN1C[C@@H]2[C@@H]3C(=O)N(Cc4ccccc4)C(=O)[C@@H]3[C@](Cc3ccccc3)(C(=O)OC)N2C1=NC1CCCCC1 | 3970 | / | 0 | 1 | -5 | -5.6 | -22
CCSc1nc(NCCN(C)C)c2c3c(sc2n1)COC(C)(CC)C3 (stereo not given) | / | -9 | 4 | 13 | -4 | 3.2 | 42
CC(C(=O)c1ccccc1)n1cnc2ccccc2c1=O (stereo not given) | 3885 | -14 | 7 | 14 | -26 | 3.4 | 2
